AmpC inh no det: AmpC beta-lactamase inhibition, detergent-free assay | Potency, µM (highest dose often 28.7 µM), without a hit: at the highest dose activity change, negative = inhibition | P00811 | 1.8% of 71,000 active | AmpC nitrocefin hydrolysis, absorbance 480 nm, no detergent; potencies from a single point are estimates | AID 585; active = falling curve, for most hits resting on a single point; inconclusive = weak or doubtful change; inactive = flat or rising curve; further: % of control where 0% means no effect; about half of the hits show no inhibition at the top dose; a quarter of the inactives give rising signals
Target sequence (P00811 whole entry, looked up): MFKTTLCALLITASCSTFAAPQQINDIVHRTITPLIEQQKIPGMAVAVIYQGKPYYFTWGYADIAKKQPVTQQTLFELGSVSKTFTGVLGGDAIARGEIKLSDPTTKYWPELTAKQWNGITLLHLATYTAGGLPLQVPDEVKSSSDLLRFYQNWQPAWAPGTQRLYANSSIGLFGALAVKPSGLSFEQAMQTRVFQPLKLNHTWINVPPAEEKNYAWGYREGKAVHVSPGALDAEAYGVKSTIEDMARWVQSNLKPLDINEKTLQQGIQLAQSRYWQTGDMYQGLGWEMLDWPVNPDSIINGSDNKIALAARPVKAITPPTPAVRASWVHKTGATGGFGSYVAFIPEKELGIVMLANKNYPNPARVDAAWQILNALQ
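AmpC in 20 mM phosphate buffer pH 7.0 was preincubated 15 min at room temperature with compounds. Nitrocefin (800 uM stock) was then added and hydrolysis followed at 480 nm every 20 s for 4 min.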
An asterisk follows results filed as active; & = joins results of further samples; [ ] = dose if it differs, or a comment. Potency means the concentration at half of the fitted maximal effect. Only part of the results is shown; rates above refer to the full screens.

SMILES | AmpC inh no det
c1cnc(Oc2ccc(-c3nnco3)cc2)cn1 | -10%
CCOc1cc(S(=O)(=O)N2CCN(Cc3ccccc3)CC2)ccc1Br | 35%
CC(=O)Nc1ccc(S(=O)(=O)Nc2nc(C)cc(-n3nc(C)cc3C)n2)cc1 | 8%
Cc1ccc(N2CC(C(N)=O)CC2=O)cc1 (stereo unspecified) | 1%
CN1CCN(S(=O)(=O)c2cccc(S(=O)(=O)c3ccc(Cl)c(Cl)c3)c2)CC1 | 55%
COC(=O)c1ccc(OCC(=O)Nc2nn(-c3ccccc3)nc2C(N)=O)cc1 | 12%
CCOC(=O)Cc1csc(NC(=O)CSc2nc3cccnc3n2CC)n1 | 10%
COc1ccc(C(CC(=O)O)NS(=O)(=O)c2ccc(C)cc2)cc1OC (stereo unspecified) | 0%
O=S(=O)(Nc1ccccn1)c1ccc(Oc2ccccc2)cc1 | -15%
O=C(O)CCc1nc(-c2ccccc2-n2cccc2)no1 | -5%[5.75 µM]
CC(=O)Nc1cccc(NS(=O)(=O)Cc2ccc(Cl)cc2)c1 | -5%
Cc1ccccc1C(=O)N(C)Cc1ccccc1 | 10%
S=C(c1ccc(N2CCOCC2)cc1)N1CCOCC1 | 6%
CCn1c(C(O)c2ccc(C)cc2)nc2ccccc21 (stereo unspecified) | 2%
O=C(CSc1nnc(Cn2cnc3ccccc32)o1)c1ccccc1 | 10%
Cc1ccc(O)cc1 (tested in a mixture with another compound) | -2%[5.75 µM]
COCc1nnc(NC(=O)c2ccc(S(=O)(=O)N(C)c3ccccc3)cc2)o1 | -14%
Cc1csc(NC(=O)CSCC(=O)Nc2ccccc2)n1 | -10%
Cc1nc2ccccc2c(=O)n1-n1cnnc1 | -9%
CCOC(=O)Cn1nnnc1CN(Cc1ccc(OC)cc1)Cc1cc2cc(C)cc(C)c2[nH]c1=O | 102%
CN(C)c1ncc2nc(-c3ccc(Cl)cc3)c(=O)n(C)c2n1 | -18%
CCOC(=O)c1sc(=S)n(-c2ccc3c(c2)OCO3)c1N | 3%
CC(=O)c1ccc(NC2OC(C)C(O)C(O)C2O)cc1 (stereo unspecified) | -12%
O=C(CNC(=O)c1ccco1)NCCCc1ccccc1 | -11%
CCOc1ccc(NS(=O)(=O)c2ccc3[nH]cc(C(=O)NC(C)CC)c(=O)c3c2)cc1 (stereo unspecified) | -15%
COCc1nnc(NC(=O)CCCOc2ccccc2)s1 | 6%
CCOC(=O)Nc1ccc(S(=O)(=O)NCCCN2CCOCC2)cc1 | 8%
O=C(O)c1ccc(NC(=O)C2(c3ccccc3)CCOCC2)cc1 | 2%
CCOC(=O)C1=C(C)N=c2s/c(=C/c3ccco3)c(=O)n2C1c1cccc(OC)c1 (stereo unspecified) | 7.9µM*
CC1(C)Cc2ccccc2-c2nc(CN3CCOCC3)[nH]c(=O)c21 | 53%
CC(C)CC(c1nnnn1C(C)C)N1CCN(c2cccc(Cl)c2)CC1 (stereo unspecified) | 79%
CCn1cc(CN(C)C(=O)CSc2nc(-c3ccco3)cc(C(F)(F)F)n2)c(C)n1 | 87%
CCOC(=O)C1CCN(S(=O)(=O)c2ccc(OCC(=O)OC)cc2)CC1 | 27%
CC(=O)Nc1ccc(NC(=O)Cn2c(CC(=O)N3CCCC3)nc3ccccc32)cc1 | -3%
CCO/C(C)=C1\C(=O)N(CC)c2ccccc21 | 31%
CC(NCC1(N2CCOCC2)CCCCC1)C(=O)N1CCc2ccccc21 (stereo unspecified) | 18%
COc1ccc(-c2nnc3ccc(SCC(=O)N4CCCCCC4)nn23)cc1OC | 25%
O=C(c1ccccc1)c1cn(CC(=O)N2CCOCC2)c2ccccc12 | 28%
CC(=O)NC(C)C(=O)OCC(=O)Nc1ccc(Br)cc1 (stereo unspecified) | 8%
Cc1cccc(NC(=O)CC2SC(=NC3CCCCC3)NC2=O)c1 (stereo unspecified) | 28%
CC(=O)N1C(c2ccccc2)CC(=O)OC1c1ccc2c(c1)OCO2 (stereo unspecified) | 9%
CCC(C)(C)NC(=O)CN(CC1CCCO1)C(=O)CCC(=O)Nc1nccs1 (stereo unspecified) | 15%
Cc1ccc(N(C(=O)Nc2ccccc2)C2=NCC(C)S2)cc1 (stereo unspecified) | 4%
Cc1nn(Cc2ccc(Cl)c(Cl)c2)c(C)c1NC(=O)c1cc(CC(C)C)on1 | 79%
O=C(Nc1nnc(CCc2ccccc2)s1)C1CCCO1 (stereo unspecified) | -3%
Cn1nnc(NCc2cc(Br)ccc2OCc2cccs2)n1 | -6%
CC(=O)N1CCc2cc(S(=O)(=O)CCC(=O)O)ccc21 | -16%
O=c1c(O)c(-c2cccs2)oc2ccccc12 | -6%
c1ccccc1 | -11%&-22%
COc1cc(NC2=CC(=O)CC(C)(C)C2)cc(OC)c1 | -12%
CCN(CC)CCN1C(=O)c2oc3ccccc3c(=O)c2C1c1ccc(C)cc1 (stereo unspecified) | 16%
CCOc1ccccc1N(CC(=O)NC1CCCC1)C(=O)CCCC(=O)Nc1ccccn1 | 58%
CCOC(=O)C1CCN(C(=O)c2cc(OCC)c(OCC)c(OCC)c2)CC1 | 63%
CC(C)(C)c1cc(Cc2ccccc2)[nH]n1 | 15%
O=C(CCN1CCOCC1)Nc1ccc(F)cc1F | 8%[5.75 µM]
Cc1ccc(NC(=O)CC2SC3=NCCN3C2=O)cc1 (stereo unspecified) | 0%
COc1ccc(N2CCN(C(=O)c3ccc(S(=O)(=O)N4CCOCC4)cc3)CC2)cc1 | 117%
COc1ccc(N2CCN(Cc3cc(=O)oc4cc(-c5ccccc5)c(O)cc34)CC2)cc1 | -22%
O=C(Nn1cnc2ccccc2c1=O)c1ccc(F)cc1Cl | -4%
CCOC(=O)C1CCN(C(=O)C2CC(=O)N(c3ccc(C)cc3)C2)CC1 (stereo unspecified) | 10%

The list goes on:
SMILES | AmpC inh no det
CCOc1ccc2c(c1)cc(CN(C(=O)CC)C1CCCCC1)c1nnnn12 | 104%
O=C(Nc1ccc2c(c1)OCO2)N1CCOCC1 | 0%
OCn1ncn(-c2ccccc2)c1=S | -8%
Cc1nc(CN2CCCCC2)c(O)c(=O)[nH]1 | 4%[5.75 µM]
CCc1nc(-c2cc3ccc(C)cc3[nH]c2=O)no1 | 7%
CC(=O)N1CCc2cc(S(=O)(=O)NC(CC(C)C)C(=O)Nc3ccc4c(c3)OCCO4)ccc21 (stereo unspecified) | 22%
O=C(CCOc1ccccc1)NCc1ccccc1 | -1%
COc1ccc2c(c1)c(=O)cc(C)n2CC(=O)NCc1ccco1 | 12%
C[C@@H](CCc1ccc(O)cc1)NCCc1ccc(O)c(O)c1 | -15%
CC(C)Cc1ccc(C#N)c(SCC(N)=O)n1 | 6%
CCCS(=O)(=O)Nc1c(C(=O)O)[nH]c2ccccc12 | -12%
CCOC(=O)c1c(N)sc2c1CCC(C)C2 (stereo unspecified) | 5%
O=S(=O)(Cc1ccccc1)NCc1cccnc1 | 7%
COc1ccc(S(=O)(=O)N2CCCC(C(=O)NCc3ccncc3)C2)cc1 (stereo unspecified) | 1%
O=C(CS(=O)(=O)Cc1ccccc1)Nc1nc2ccccc2s1 | -15%

Reformatted in CSV form: part of the list above
SMILES,AmpC inh no det
CCn1c(C(O)c2ccc(C)cc2)nc2ccccc21 (stereo unspecified),2%
CC(=O)NC(C)C(=O)OCC(=O)Nc1ccc(Br)cc1 (stereo unspecified),8%

Other results
SMILES | AmpC inh no det
CC(=O)N1CCC2(CCCN(c3cccc(-c4ccccc4)c3)C2)CC1 | 160%
N[C@H](Cc1ccc(N(CCCl)CCCl)cc1)C(=O)O | 24%
O=C(O)CP(=O)(c1ccccc1)c1ccccc1 | 0%
COc1ccc(CCNC(=O)c2cnccn2)cc1 | 8%
Cc1ccc(-c2cc3c(nn2)-c2ccccc2C3=O)cc1 | -6%
Cc1ccsc1C1C2=C(CCCC2=O)Nc2ncnn21 (stereo unspecified) | 5%
c1ccc(-n2nnnc2Oc2cccc3cccnc23)cc1 | 6%
CC1Cc2ccccc2N1C(=O)COC(=O)C1=COCCO1 (stereo unspecified) | -2%
COc1cc(C)cc(OC)c1/C=C\C(=O)O | 0%[5.75 µM]
COc1ccc(CC(=O)OCc2cc3cccc(C)c3[nH]c2=O)cc1 | 3%
Cc1ccc(-n2nnnc2SCCNS(=O)(=O)c2ccccc2)cc1C | -4%
Cc1oc(C)c(C(=O)NCCCC(=O)O)c1C(=O)NCCCC(=O)O | -13%
O=C(COc1cccc2cccnc12)Nc1nccs1 | -10%
CC(=O)N1CCN=C1SCc1ccc(C)cc1 | 9%
CCC(=O)N1CC2(C)CN(C(=O)CC)CC(C)(C1)C2 | 2%
Cn1c(=O)[nH]c(=O)c2c1nc(N1CCCCC1)n2CC(O)CN1CCCCC1 (stereo unspecified) | -2%
CCN1C(=O)C2C(c3cccc(F)c3)NC(C)(C(=O)OC)C2C1=O (stereo unspecified) | -1%
COc1ccc(Cl)cc1CN1CCN(c2nc(C)cc(C)c2C#N)CC1 | 80%
CCCCn1c(O)c(C(CC)=NCc2ccc3c(c2)OCO3)c(=O)[nH]c1=O | 12%
CCCc1c(O)nc(SCc2ccccc2)[nH]c1=O | -3%
Cc1cccc(NC(=O)CSC(N)=O)c1C | 2%
Cn1c(N)c(C(=O)COC(=O)C2(c3ccc(F)cc3)CCCC2)c(=O)n(C)c1=O | 109%
O=S(=O)(c1ccc(Cl)s1)N1CCN(c2ncccn2)CC1 | -3%
O=C(O)CC[P+](c1ccccc1)(c1ccccc1)c1ccccc1 | 8%[5.75 µM]
CN(c1ccc(C(=O)NCc2ccccc2)cc1)S(C)(=O)=O | 11%
Cc1ccc(-c2nn3c(C)nnc3c3ccccc23)cc1S(=O)(=O)NCc1ccco1 | 41%
CC1(C)CC2CC(C)(CN2c2ncnc3ccccc23)C1 (stereo unspecified) | 29%
CN1CCN(CCCNc2nc3ccccc3c3nc(-c4ccccc4)nn23)CC1 | 151%
Cc1nn(-c2ccccc2)c2sc(C(=O)N3CCc4ccccc4C3)cc12 | 7%
Cc1ccc(C2CC(c3cccc(C)c3)n3nc(N)nc3N2)cc1 (stereo unspecified) | 4µM*[single pt active]

Part of the list above, set out differently:
mol	AmpC inh no det
Cc1ccsc1C1C2=C(CCCC2=O)Nc2ncnn21 (stereo unspecified)	5%
c1ccc(-n2nnnc2Oc2cccc3cccnc23)cc1	6%
CC1Cc2ccccc2N1C(=O)COC(=O)C1=COCCO1 (stereo unspecified)	-2%
COc1cc(C)cc(OC)c1/C=C\C(=O)O	0%[5.75 µM]
COc1ccc(CC(=O)OCc2cc3cccc(C)c3[nH]c2=O)cc1	3%
Cc1ccc(-n2nnnc2SCCNS(=O)(=O)c2ccccc2)cc1C	-4%
Cc1oc(C)c(C(=O)NCCCC(=O)O)c1C(=O)NCCCC(=O)O	-13%
O=C(COc1cccc2cccnc12)Nc1nccs1	-10%
CC(=O)N1CCN=C1SCc1ccc(C)cc1	9%
CCC(=O)N1CC2(C)CN(C(=O)CC)CC(C)(C1)C2	2%
Cn1c(=O)[nH]c(=O)c2c1nc(N1CCCCC1)n2CC(O)CN1CCCCC1 (stereo unspecified)	-2%
CCN1C(=O)C2C(c3cccc(F)c3)NC(C)(C(=O)OC)C2C1=O (stereo unspecified)	-1%
COc1ccc(Cl)cc1CN1CCN(c2nc(C)cc(C)c2C#N)CC1	80%
CCCCn1c(O)c(C(CC)=NCc2ccc3c(c2)OCO3)c(=O)[nH]c1=O	12%
CCCc1c(O)nc(SCc2ccccc2)[nH]c1=O	-3%
Cc1cccc(NC(=O)CSC(N)=O)c1C	2%
Cn1c(N)c(C(=O)COC(=O)C2(c3ccc(F)cc3)CCCC2)c(=O)n(C)c1=O	109%
O=S(=O)(c1ccc(Cl)s1)N1CCN(c2ncccn2)CC1	-3%
O=C(O)CC[P+](c1ccccc1)(c1ccccc1)c1ccccc1	8%[5.75 µM]
CN(c1ccc(C(=O)NCc2ccccc2)cc1)S(C)(=O)=O	11%
Cc1ccc(-c2nn3c(C)nnc3c3ccccc23)cc1S(=O)(=O)NCc1ccco1	41%
CC1(C)CC2CC(C)(CN2c2ncnc3ccccc23)C1 (stereo unspecified)	29%

New compounds follow:
SMILES | AmpC inh no det
Cc1ccccc1-c1nc(Cc2ccc(Cl)cc2)no1 | -13%
CCN(CC)S(=O)(=O)N1CCC(C(=O)NC(C)CCc2ccccc2)CC1 (stereo unspecified) | 72%
O=C(CCc1c[nH]c2ccccc12)NCC1CCCO1 (stereo unspecified) | -8%
O=C(c1cc(-c2cccc(O)c2)on1)N1CCc2ccccc2C1 | -14%
COc1ncc2ncc(=O)n(Cc3ccc(F)cc3)c2n1 | 27%
O=C(COC(=O)c1ccncc1)NCc1ccccc1 | 6%
O=[N+]([O-])c1cccc(C(F)(F)F)c1 | 1%
CC1(C)CC(=O)C(C(C2=C(O)CC(C)(C)CC2=O)c2cccnc2)C(=O)C1 (stereo unspecified) | 3%
O=C(O)c1cc(O)c2c(c1)C(=O)c1cccc(O)c1C2=O | -10%
O=C(O)CCCCCNC(=O)c1cccc(Br)c1 | -11%
CCC(=O)NCCN1CCN(C(=O)CC)CC1 | 6%
C=CCNc1nc(NCCO)nc(N2CCCC2)n1 | 6%
CSc1nsc(SCC(=O)Nc2ccc3c(c2)OCCO3)n1 | -2%
CCOC(=O)N1CCC(NC(=O)CS(=O)(=O)Cc2nc(-c3ccc(C)cc3)oc2C)CC1 | 7%
CCC1(CC)C(=O)C=CNC1=O | -4%[12.8 µM]
CCc1ccc(NC(=O)CSc2nnc(-c3ccccn3)n2C)cc1 | 27%
Cc1sc2ncnc(Sc3nnc4sc5ccccc5n34)c2c1C | 5%
Cc1ccc(NC(=O)CSc2nnc(Cc3cccn3C)n2-c2ccc(F)cc2)c(C)c1 | 109%
O=C(O)CCSCC(=O)c1ccc2c(c1)OCCO2 | -9%
CCOc1ccc(N2C(=O)CC(N(O)c3ccccc3)C2=O)cc1 (stereo unspecified) | 1%
Cc1nnc(NC(=O)CSc2nc3c(c(=O)n2C)SC(C)C3)s1 (stereo unspecified) | -6%
O=C(c1cccc(C(F)(F)F)c1)N1CCN(C2CCCCC2)CC1 | 24%
CCc1ccc(C2C(C#N)=C(N)SC(N)=C2C#N)cc1 | -16%

Source: PubChem (National Center for Advancing Translational Sciences (NCATS))
